# NPYLR7 agonist – mosquito NPYLR7 agonism | 0.15% of 270,000 active | activation, % at 10 µM | HEK293T NPYLR7/Galpha15, GCaMP6s calcium fluorescence | AID 1259423; in the data active means activation above about 40%;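 further: 0% = vehicle and 100% = reference agonist at the receptor; some compounds past the cut are filed as inactive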
# NPYLR7 agonist max-min – recorded beside NPYLR7 agonist, whose call it bears; activation, %; measured here: Max-Min RFU normalised activation; some inactives read as strong as hits;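 span of the calcium signal over five minutes; 0% = vehicle and 100% = native peptide agonist; compound fluorescence can raise it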
# Starred values were filed as active, the others as inactive; & = joins results of further samples. An excerpt. The share of hits here may be higher or lower than overall.
# The opening 7 records as a preview:
SMILES | NPYLR7 agonist | NPYLR7 agonist max-min
C=CCN(Cc1ccc(F)c(F)c1)Cc1cccn1Cc1ccc(C(F)(F)F)cc1 | 2.5 | 8.3
C=C(Br)Cn1c(CO)nc2ccccc21 | 0.5 | 4.0
Cc1nn(-c2ccccc2)c(C)c1CN(C)S(=O)(=O)c1c(Cl)cccc1Cl | 1.1 | -2.6
O=C(O)c1cc(-c2ccccc2)n[nH]1 | 1.5 | 0.2
Cc1ccc(-c2nnc(SCc3ccc(C(=O)O)cc3)n2-c2cccc(Cl)c2)cc1 | 1.0 | -3.2
CC(C)N(CCNC(=O)c1ccc(SC(F)(F)F)cc1)C(C)C | -7.4 | -11.8
CC(C(=O)NCc1cccnc1)n1c(=O)n(-c2ccccc2Cl)c(=O)c2ccc(Cl)cc21 (centres undefined) | 15.6 | 20.1

# All compounds of this part, from the first entry:
SMILES | NPYLR7 agonist | NPYLR7 agonist max-min
C=CCN(Cc1ccc(F)c(F)c1)Cc1cccn1Cc1ccc(C(F)(F)F)cc1 | 2.5 | 8.3
C=C(Br)Cn1c(CO)nc2ccccc21 | 0.5 | 4.0
Cc1nn(-c2ccccc2)c(C)c1CN(C)S(=O)(=O)c1c(Cl)cccc1Cl | 1.1 | -2.6
O=C(O)c1cc(-c2ccccc2)n[nH]1 | 1.5 | 0.2
Cc1ccc(-c2nnc(SCc3ccc(C(=O)O)cc3)n2-c2cccc(Cl)c2)cc1 | 1.0 | -3.2
CC(C)N(CCNC(=O)c1ccc(SC(F)(F)F)cc1)C(C)C | -7.4 | -11.8
CC(C(=O)NCc1cccnc1)n1c(=O)n(-c2ccccc2Cl)c(=O)c2ccc(Cl)cc21 (centres undefined) | 15.6 | 20.1
CC(C)c1nn(Cc2cccc(C(F)(F)F)c2)c(=O)c2c1cnn2C(C)(C)C | -1.3 | 0.1
CCOC(=O)CSc1ccc2nnc(CCNS(=O)(=O)c3ccc(C)cc3)n2n1 | -6.3 | -12.2
Cn1c(SCC(=O)NCCN2C(=O)CSC2=S)nnc1C(F)(F)F | -0.8 | 10.3
CCCCn1c(CNC(=O)C23CC4CC(CC(C4)C2)C3)nnc1SC(C)CC (centres undefined) | -2.0 | -2.1
Cc1cc(CSc2ccc(S(=O)(=O)N3CCOCC3)cn2)no1 | 3.2 | 2.7
CCCCn1c(=O)c2c(nc3n2CC(C)CN3C2CCCCC2)n(C)c1=O (centres undefined) | 8.3 | 7.6
CC1CC(C)CN(C(=O)c2cc3c(s2)CCC3)C1 (centres undefined) | 9.1 | 6.6
Cc1ccc(-c2nc3sc(CCNC(=O)c4ccc(Br)o4)c(C)n3n2)cc1 | 7.4 | 6.0
Cc1ccccc1C(=O)N1C(C(=O)NCc2cccc(C(F)(F)F)c2)COC12CCN(C(=O)c1cccs1)CC2 (centres undefined) | 1.0 | 17.9
Cn1cc(C=CC(=O)N2CCN(S(=O)(=O)c3cc(Cl)ccc3Cl)CC2)cn1 | 1.3 | -1.5
Cc1c(C(=O)NCc2ccc(C#N)cc2)sc(=O)n1Cc1ccc(C(F)(F)F)o1 | 5.3 | 3.4
CC1=CCN(Cc2ccc(Br)s2)CC1 | 1.9 | -3.0
CC1(C)OCC(CNC(=O)c2cncn2-c2ccc(-c3ccc(F)c(F)c3)cc2)O1 (centres undefined) | 6.2 | 3.7
CCCCC(=O)Nc1ccc(C)cc1NC(=O)c1cccc2nccnc12 | 5.1 | 1.0
N#CCn1cnc2sc3c(c2c1=O)CCCC3 | 1.3 | -1.5
Cc1cccc(-c2nc3c(NC4CCC(O)CC4)nccc3[nH]2)c1 (centres undefined) | -6.0 | -10.3
C=c1cc(C)n(CC(=O)Nc2cccc(C)c2C)c(=O)c1=C1N=C(c2ccc(Cl)cc2)NO1 | -12.1 | -15.2
CCc1nnc(NC(=O)CSCc2ccc(Cl)cc2)s1 | 7.8 | 5.3
O=C(Cn1nc2c3cc(F)ccc3ncn2c1=O)Nc1ccc(Cl)cc1 | -6.7 | -8.7
Cc1ccnc(SCc2cc(=O)c(OC(=O)c3ccc(-c4ccccc4)cc3)co2)n1 | -6.8 | 3.9
CC1=C(C(=O)OC2CCCCCC2)C(c2ccc([N+](=O)[O-])cc2)NC(=O)N1 (centres undefined) | -2.1 | -5.5
Cc1nn(-c2ccccc2)cc1CCCNS(C)(=O)=O | -2.1 | -2.9
CCCCCCCCCCCCSCCC(N)=O | 8.9 | 6.6
CC(C)Cn1c(N)c(C(=O)COC(=O)C2CC=CCC2)c(=O)n(C)c1=O (centres undefined) | -0.3 | 9.3
Cc1ccsc1-c1nc(CN2CCc3c(nc(CC4CC4)[nH]c3=O)C2)c(C)o1 | 15.0 | 12.4
CCN(CC(=O)Nc1c(-c2ccccc2)c(C)nn1-c1ccccc1C)C(=O)Nc1ccc(F)c(Cl)c1 | 5.1 | 13.3
COC(=O)c1ccccc1NC(=O)N1CCC(Cc2ccc(F)cc2)CC1 | 2.4 | 9.0
COc1cc(CCC(=O)Nn2cnc3ccccc32)cc(OC)c1 | 10.3 | 6.1
CCOc1ccc2nc(N3CCCC(C(=O)N4CCN(c5ccccc5OC)CC4)C3)nc(C)c2c1 (centres undefined) | 4.7 | 3.7
Cc1ccc(-c2ccc(=O)n(CCCNC(=O)COc3ccc4c(c3)OCO4)n2)cc1 | -2.4 | -2.2
COc1ccc(-c2cc(C(=O)N3CCN(C/C=C/c4ccccc4)CC3)c(C)n2-c2ccccc2Cl)cc1 | 11.4 | 12.4
CCOC(=O)CN1C(=O)SC(=Cc2cc(C)n(C)c2C)C1=O | 3.2 | 1.8
O=c1cc(Cn2ccnc2)c2cc(O)c(-c3ccccc3)cc2o1 | 7.8 | 8.5
COc1ccccc1OCCn1c(C2CC(=O)N(c3cccc(C)c3)C2)nc2ccccc21 (centres undefined) | 0.7 | -1.8
CCOC(=O)ON=C(N)C(N)=NOC(=O)OCC | -13.9 | -20.7
CCc1ccc(-c2nn(CC(=O)Nc3ccc(F)cc3)c(=O)c3nc(C)sc23)cc1 | 1.0 | -2.1
C=CCN(CCSc1ccccc1)C(=O)c1cccn1C | 9.0 | 2.2
CCCn1c(=O)c(C(=O)NCC2CCCO2)nn(-c2ccc(Cl)cc2)c1=O (centres undefined) | -0.6 | 4.3
FC(F)(F)c1nc(Cl)c2[nH]cnc2n1 | -4.1 | -0.3
COc1ccc([N+](=O)[O-])cc1NC(=O)CSc1ccc(F)cc1 | 5.7 | 3.9
COc1ccccc1Cc1nnc(SCC2CCCN(C)C2)o1 (centres undefined) | 14.6 | 9.7
CC(C)C(C(=O)O)N1C(=O)C2C3C=CC(C4CC34)C2C1=O (centres undefined) | 12.5 | 9.9
CC(C)Cn1nccc1NC(=O)c1ccc2c(c1)OCO2 | 6.6 | 5.6
O=C(O)C1COC2(CCN(C(=O)c3cccc(Cl)c3)CC2)N1C(=O)c1ccc(F)cc1 (centres undefined) | 2.6 | 6.6
CCOC(=O)C1=C(O)/C(=C\c2cccc(C)n2)SC1=Nc1cccc(F)c1 | -0.2 | 7.3
COc1ccc(OC2(C(=O)O)CCN(C)CC2)c(Cl)c1 | 12.0 | 3.0
COc1cccc(COc2c[nH]c(C(=O)Nc3cccc(C)c3C)cc2=O)c1 | 0.5 | -0.3
NC(=S)N=Nc1ccc(NN=C(N)N)cc1 | -22.8 | -33.1
CCN1C(=S)NC(c2cccc(NC(=O)COCc3ccccc3)c2)C(C(=O)OC)=C1C (centres undefined) | 12.4 | 11.2

# Continuation.
SMILES | NPYLR7 agonist | NPYLR7 agonist max-min
COc1ccc(-c2cc(C(=O)NC3CCCCC3)c3ccccc3n2)cc1 | 13.1 | 12.5
CCn1c(=O)[nH]c(=O)c2c(C(=O)OC)cc(-c3cc(Cl)ccc3Cl)nc21 | -3.1 | -3.1
CCCCOc1ccc(C(=O)Nc2c3c(nn2C(C)(C)C)CS(=O)C3)cc1 (centres undefined) | 3.9 | 1.1
CCN(CC)CCn1c(C)c(C)n2c3c(=O)n(Cc4ccccc4F)c(=O)n(C)c3nc12 | 1.4 | -0.1
Cc1ccccc1CCC1CCCN(C(=O)CCN2CCCC2=O)C1 (centres undefined) | 15.2 | 5.9
FC(F)(F)c1cc(-c2cccc(Br)c2)nc2ncnn12 | 5.0 | 2.3
O=C1CC(C(=O)N2CCOC3CCCCC32)CN1C1CCCC1 (centres undefined) | 3.4 | -9.7
CCNC(=O)[C@@H]1C[C@H](N)CN1C(=O)c1ccc(C(C)C)n(C)c1=O | 1.7 | -0.3

# Quoted at random: 4 records from the list
SMILES | NPYLR7 agonist | NPYLR7 agonist max-min
CCNC(=O)[C@@H]1C[C@H](N)CN1C(=O)c1ccc(C(C)C)n(C)c1=O | 1.7 | -0.3
O=C1CC(C(=O)N2CCOC3CCCCC32)CN1C1CCCC1 (centres undefined) | 3.4 | -9.7
CCN(CC)CCn1c(C)c(C)n2c3c(=O)n(Cc4ccccc4F)c(=O)n(C)c3nc12 | 1.4 | -0.1
COc1ccc(-c2cc(C(=O)NC3CCCCC3)c3ccccc3n2)cc1 | 13.1 | 12.5

# Remaining list, next part:
SMILES | NPYLR7 agonist | NPYLR7 agonist max-min
Cc1nn(Cc2ccc(F)c(Br)c2)c(N)c1C#N | 3.7&-0.3 | 1.8&5.4
Cc1oc(-c2cccs2)nc1C(=O)NC(C1CC1)C1CC1 | 1.0 | 3.1
CCOC(=O)C(CC)n1cnc2c(nnn2-c2ccc(C)cc2)c1=O (centres undefined) | 8.7 | 12.4
CC(=O)N1CCc2c(nc(C)nc2N2CCCC(c3ccccc3C)C2)C1 (centres undefined) | 8.3 | 7.4
Cc1cccc(-n2nc(C(=O)N3CCCC3)c(=O)n(Cc3ccccc3Cl)c2=O)c1 | 10.7 | 14.2
CN(CC(=O)Nc1cccc(F)c1)C(=O)CC1Sc2ccccc2NC1=O (centres undefined) | 1.1 | 2.0
COc1ccc(-c2n[nH]c(=O)c3nc(C)sc23)cc1 | -4.2 | -4.2
COc1ccc2c(c1)OC(C)CN(CCC(=O)N1CCc3[nH]c4ccc(OC)cc4c3C1)C2 (centres undefined) | 31.2 | 26.9
CCOC(=O)C1=C(C)NC2=C(C(=O)CCC2)C1c1ccncc1 (centres undefined) | 6.8 | 5.7
CC(=O)c1c(C)[nH]c(C(=O)COC(=O)Cn2cnc3c2c(=O)n(C)c(=O)n3C)c1C | 2.6 | 9.1
COc1ccc(/C=C2/SC(=S)N(CCC(=O)N3CCCCC3)C2=O)cc1 | 3.7 | -2.8
COC(=O)c1c(NC(=O)CCl)sc2c1CCCCC2 | -3.1 | -6.8
C=CCn1nnc(NCc2ccc(Cl)cc2)n1 | -19.0 | -26.6
COC(C)(C(=O)Nc1cc(S(C)(=O)=O)ccc1C)c1ccccc1 (centres undefined) | 9.1 | 4.2
O=C(NC(C(=O)N1CCCC1)C1CCN(C(=O)c2ccc(C(F)(F)F)cc2)CC1)c1ccc2c(c1)OCO2 (centres undefined) | 8.5 | 11.4
c1ccc2c(c1)CCCC2SCc1nc(-c2ccsc2)no1 (centres undefined) | 8.1 | 1.7
CCCOc1cccn2c(N(C)CC3CC3)c(C)nc12 | 14.3 | 3.0
O=C(c1cccc2ccnn12)N1CCC[C@H]1CN1CCCC1 | 0.4 | 0.5
OCCN1CCN(c2cc(-c3cccc(C(F)(F)F)c3)nc3ccnn23)CC1 | -2.4 | -5.5
CC(C)(C)NC(=O)COc1ccc2c(=O)c(Oc3ccc(-c4ccccc4)cc3)coc2c1 | -5.1 | -7.7
CC(C)OCC(=O)N1CCCC2(C=Cc3ccccc3O2)CC1 (centres undefined) | 1.0 | -1.8
Cc1nc2ccc(I)cn2c1C=NNc1ccc(C(F)(F)F)cn1 | 27.3 | 25.4
Cc1c(C)n2c3c(=O)n(CCCO)c(=O)n(C)c3nc2n1-c1ccccc1 | -1.0 | -3.2
COc1ccccc1-c1cc(=O)c2cccc(OC)c2o1 | -4.8 | -5.4

# Whole records from above:
# Record of COc1ccccc1-c1cc(=O)c2cccc(OC)c2o1 : NPYLR7 agonist: -4.8; NPYLR7 agonist max-min: -5.4
# Record of CC(C)OCC(=O)N1CCCC2(C=Cc3ccccc3O2)CC1 (centres undefined) : NPYLR7 agonist: 1.0; NPYLR7 agonist max-min: -1.8

# Next records follow.
SMILES | NPYLR7 agonist | NPYLR7 agonist max-min
CN(C)CCCN(C(=O)c1ccc2c(c1)OCCO2)c1nc2cc3c(cc2s1)OCO3 | 0.1 | -3.2
COc1ccccc1-n1c(Cc2ccccc2)nnc1SCC(=O)NCc1ccccc1 | -5.8 | 0.0
COc1cccc(CC(=O)Nc2cnc3cnc(-c4cccc(Cl)c4)cn23)c1 | -3.9 | -8.5
COc1ccc(S(=O)(=O)NCCCN2CCOCC2)cc1N1CCN(S(=O)(=O)c2ccccc2Cl)CC1 | 15.3 | 15.8
CC(C)(C)CC(C)(C)Nc1c(-c2ccc3c(c2)OCO3)nc2ccc(Cl)cn12 | 5.1 | 13.7
O=C(c1cccnc1Cl)N1CCOC(Cc2ccccc2)C1 (centres undefined) | -7.3 | -7.2
CCOC(=O)CCNC(=O)CC | -4.5 | -6.7
CCCc1cnc(-c2cnc3ccccc3c2)nc1 | 18.8 | 6.2
COc1ccccc1N1CCC(N2[C@H]3CCNC[C@@H]2CC3)CC1 | 1.8 | 11.2
